Menin MLL FP FL = menin-MLL binding inhibition, fluorescein peptide | 290,000 tested, under 10 active | Fluorescence polarization, fluorescein-MLL peptide displacement from menin | FP activity change, % at 61.4 µM | AID 1766; inconclusive = falling polarisation curve, or a change in total fluorescence; inactive = total fluorescence flat and polarisation flat or rising; no compound was filed as active; the % refers to the polarisation; negative = inhibition;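 note: % of control where 0% means no effect; inhibitors lower the polarisation; unlabelled MLL peptide was the positive control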
Sfp PPTase inh = Sfp phosphopantetheinyl transferase inhibition | actives 3.5% (n = 310,000) | AID 1490 | Biochemical Sfp PPTase activity, qHTS | Q9F4F7 | Potency, µM, inactives show max response, negative = inhibition, actives largely listed as inhibitors; active = well fitted inhibition curve with a large enough effect; inconclusive = small, poorly fitted or top-dose-only effect, or another doubt; inactive = no such curve, though single readings can be large or run the other way;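 note: the enzyme is Sfp with the accession as filed and its product quenches rhodamine fluorescence; potency is the fitted concentration of half-maximal effect; 0% = enzyme reaction without inhibitor and -100% = no enzyme wells; top concentration of the series not given in the record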
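Buffer: 50 mM Hepes-Na pH 7.6, 10 mM MgCl2, 0.01% Nonidet P-40, 0.01% BSA. Enzyme 15 nM, pre-exposed to compound 15 min; substrates then added and fluorescence change tracked over 30 min.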
Starred values were filed as active, the others as inactive; ? = inconclusive; & = joins results of further samples; [ ] = another dose, or the depositor's remark.

The line under a structure holds: Menin MLL FP FL	Sfp PPTase inh
CCCC/C=C/C(NC(=O)OCc1ccccc1Cl)c1ccccc1 (centres undefined)
  1.6	28%
COc1ccc(NC(=O)N2CCC3(CC2)CCN(C(=O)c2cccn2C)CC3)cc1
  -2.5	5%
O=c1c(-c2ccc(Cl)cc2)nc2cnc(N3CCNCC3)nc2n1CCc1ccccc1
  -0.4	45µM*
CC(=O)NCCNc1nc(-c2ccccc2Cl)nc2ccccc12
  9.5	0%
COC(=O)N1CCC2(CCN(C(=O)NC(C)C)CC2)CC1
  -5.7	9%
C[C@@H]1C[C@@H]([C@@H](C)CC2CC(=O)NC(=O)C2)C(=O)[C@@H](C)C1
  -2.0	15%
CN1CCN(c2ncc3nc(-c4ccccc4)c(=O)n(C)c3n2)CC1
  2.4	16%
CS(=O)(=O)N1CCC2(CCN(c3ccccc3)CC2)CC1
  -4.3	-9%
COc1cccc([C@@H]2Oc3ccc(Br)cc3C(=O)[C@H]2OC(=O)NCc2ccc3c(c2)OCO3)c1
  23	-20%
CCCCn1c(=O)c2[nH]c(C34CC5CC(CC3C5)C4)nc2n(CCCO)c1=O
  ?	-2%

In a second layout: entries from further up.
Menin MLL FP FL | Sfp PPTase inh | canonical_smiles
-5.7 | 9% | COC(=O)N1CCC2(CCN(C(=O)NC(C)C)CC2)CC1
-2.0 | 15% | C[C@@H]1C[C@@H]([C@@H](C)CC2CC(=O)NC(=O)C2)C(=O)[C@@H](C)C1
-0.4 | 45µM* | O=c1c(-c2ccc(Cl)cc2)nc2cnc(N3CCNCC3)nc2n1CCc1ccccc1

Other records:
The line under a structure holds: Menin MLL FP FL	Sfp PPTase inh
Cc1noc(C)c1-c1nc(NCc2ccccc2)c2ccccc2n1
  -0.4	-13%
COC(=O)[C@@H]1CC[C@H](C)[C@@H](c2ccc(C)cc2)N1C(=O)c1ccc(/C=N\OC[C@@H](O)[C@H]2O[C@H]3OC(C)(C)O[C@H]3[C@@H]2O)cc1
  8.9[11.7 µM]	-2%
COc1ccc(-c2cccc(C3C4C=CCCC4(C)C(=O)N3Cc3ccccc3)c2)cc1 (centres undefined)
  -0.6	?
CCCCCCCC/C=C\CCCCCCCCOC[C@H](COP(=O)([O-])OCC[N+](C)(C)C)OC(C)=O
  1.2	6%&-15%
O=c1cc(-c2ccccc2O)oc2cc(O)ccc12
  3.9	-4%
COc1ccccc1C1=Nn2c(nnc2-c2cccc(OC)c2OC)SC1
  -9.4	15%
Cc1cc(CC(=O)O)c(C)n1-c1ccc(Cl)cc1
  3.0	-15%
COc1ccc(C2=Nn3c(nnc3-c3cc(OC)cc(OC)c3)SC2)cc1
  0.5	-24%
C/C=C/C(=O)[C@@H](C)[C@@H](/C=C/C[Si](C)(C)C)C(C)C
  -4.2	0%
COCC(=O)N1CCc2nc(-c3ccccc3)c3c(c2C1)CO[C@@H](C)C3
  -1.3[11.7 µM]	-9%
CCC1OC(=O)C[C@@H](O)[C@H](C)[C@@H](OC2OC(C)CC(N(C)C)C2O)[C@@H](CC=O)C[C@@H](C)C(=O)/C=C/[C@]2(C)OC2C1C (some centres undefined)
  1.1	-1%
C/C1=C\[C@@H](O)C(C(C)C)C(OC(=O)c2ccc(O)cc2)C/C(C)=C/CC1 (some centres undefined)
  5.1	8%
COC1CC2CCC(C)[C@](O)(O2)C(=O)C(=O)N2CCCCC2C(=O)OC(C(C)CC2CCC(O)C(OC)C2)CC(=O)C(C)/C=C(/C)C(O)C(OC)C(=O)C(C)CC(C)C=CC=C/C=C\1C (some centres undefined)
  -5.2	-5%
COC(=O)[C@@]1(Cc2ccc(OC)cc2)[C@H]2c3cc(C(=O)N(C)C)n(Cc4nc5ccccc5[nH]4)c3C[C@H]2CN1C(=O)c1ccccc1
  ?	2%
CN1CCN(c2ncc3nc(-c4cc(F)cc(F)c4)c(=O)n(-c4ccccc4)c3n2)CC1
  0.2	-10%
CN1CCN(C(=O)c2nc3ccc(Cl)cc3[nH]2)CC1
  1.5	15%
COC(=O)[C@H]1O[C@@H](c2cc(OC)c(C)c(OC)c2OCc2ccccc2)[C@H](C)[C@@H]2O[C@]12C
  0.1	1%
CCOC(=O)CNC(=O)O[C@@H]1C(=O)c2cc(Br)ccc2O[C@H]1c1cccc(OC)c1
  ?	-12%
Cc1cc2c(nc1C)CCCN2C[C@H](C)O/N=C\[C@@H](C)[C@H](OCc1ccccc1)C(C)C
  4.5[11.7 µM]	5%
CC[C@H](C)[C@H](NC(=O)[C@H](Cc1ccc(O)cc1)NC(=O)[C@H](Cc1cnc[nH]1)NC(=O)[C@H](CCCNC(=N)N)NC(=O)[C@H](CC(C)C)NC(=O)[C@H](C)NC(=O)[C@H](CO)NC(=O)[C@H](Cc1ccc(O)cc1)NC(=O)[C@H](Cc1ccc(O)cc1)NC(=O)[C@H](CCCNC(=N)N)NC(=O)[C@H](C)NC(=O)[C@H](CC(C)C)NC(=O)[C@H](CC(=O)O)NC(=O)[C@H](CCC(=O)O)NC(=O)[C@H](C)NC(=O)[C@@H]1CCCN1C(=O)[C@H](C)NC(=O)[C@H](CC(=O)O)NC(=O)[C@H](CCC(=O)O)NC(=O)CNC(=O)[C@@H]1CCCN1C(=O)[C@H](CC(N)=O)NC(=O)[C@H](CC(=O)O)NC(=O)[C@@H]1CCCN1C(=O)[C@H](CCCCN)NC(=O)[C@H](CO)NC(=O)[C@@H]1CCCN1C(=O)[C@@H](N)Cc1ccc(O)cc1)C(=O)N[C@@H](CC(N)=O)C(=O)N[C@@H](CC(C)C)C(=O)N[C@H](C(=O)N[C@H](C(=O)N[C@@H](CCCNC(=N)N)C(=O)N[C@@H](CCC(N)=O)C(=O)N[C@@H](CCCNC(=N)N)C(=O)N[C@@H](Cc1ccc(O)cc1)C(N)=O)[C@@H](C)O)[C@@H](C)CC
  -0.8	-17%
O=c1c(-c2ccc(F)cc2)nc2cnc(N3CCNCC3)nc2n1Cc1ccc(F)cc1
  0.4	?
COC(=O)c1ccc(C(NC(=O)OCc2ccccc2)/C(=C/[C@@H](C)C(=O)NCc2nc3ccccc3s2)c2cccnc2)cc1 (some centres undefined)
  2.5	15%
CNc1ncncc1-c1ccccc1OC
  1.7	-9%
C/C=C1\COC(C(=O)NCc2cccc(OC)c2OC)(C(F)(F)F)C=C1C=C(C)C (centres undefined)
  -1.1	-5%
COc1ccc([C@@H](C)C(=O)c2ccc(O)cc2O)cc1
  -1.8	1%
CCOC(CN1CCN(CC(C)C(=O)c2ccccc2)CC1)c1ccccc1 (centres undefined)
  7.2	-2%
O=C(/C=C/c1cccc([N+](=O)[O-])c1)c1ccccc1
  -1.0	0%
O=c1c(-c2cc(F)cc(F)c2)nc2cnc(N3CCOCC3)nc2n1-c1ccccc1
  -9.9	0%
COC(=O)C/C=C\[C@H](C)[C@@H](OCc1ccccc1Br)C(C)C
  -2.3[11.7 µM]	-7%
CN(C)C(=O)c1ccc(-c2ccc3ncnc(NC4CCNCC4)c3c2)cc1
  -7.7	8%
CC(C)C[C@H](NC(=O)[C@H](CCCCN)NC(=O)CNC(=O)[C@H](CC(C)C)NC(=O)[C@@H](NC(=O)[C@@H]1CSSC[C@H](N)C(=O)N[C@@H](CO)C(=O)N[C@@H](CC(N)=O)C(=O)N[C@@H](CC(C)C)C(=O)N[C@@H](CO)C(=O)N[C@@H]([C@@H](C)O)C(=O)N1)C(C)C)C(=O)N[C@@H](CO)C(=O)N[C@@H](CCC(N)=O)C(=O)N[C@@H](CCC(=O)O)C(=O)N[C@@H](CC(C)C)C(=O)N[C@@H](Cc1cnc[nH]1)C(=O)N[C@@H](CCCCN)C(=O)N[C@@H](CC(C)C)C(=O)N[C@@H](CCC(N)=O)C(=O)N[C@H](C(=O)N[C@@H](Cc1ccc(O)cc1)C(=O)N1CCC[C@H]1C(=O)N[C@@H](CCCNC(=N)N)C(=O)N[C@H](C(=O)N[C@@H](CC(N)=O)C(=O)N[C@H](C(=O)NCC(=O)N[C@@H](CO)C(=O)NCC(=O)N[C@H](C(=O)N1CCC[C@H]1C(N)=O)[C@@H](C)O)[C@@H](C)O)[C@@H](C)O)[C@@H](C)O
  -6.2	-6%
CC1CC[C@@]23CCC4(C)[C@@]5(C)CCC6C(C)(C)C(O)CC[C@@]6(C)C5C=C[C@@]4(OC2=O)C3C1C (some centres undefined)
  -2.0	12%
COc1ccc2[nH]cc(CCNc3nc(-c4ccc(C(=O)N(C)C)cc4)nc4ccccc34)c2c1
  -1.0	-21%
O=C1CCC[C@@H]2CC(NCc3ccc(Cl)c(Cl)c3)C[C@@H]3CCN1[C@H]23 (some centres undefined)
  0.2	-9%
C=CCOC(=O)NC(c1ccc(F)c(F)c1)C(C(=O)COC)C(=O)OC (centres undefined)
  4.6&1.3	13%&-7%
CNC(=O)[C@]1(C)C[C@H]1[C@H](NC(=O)[C@]1(C)C[C@H]1[C@H](NC(=O)OCc1ccccc1)c1ccccc1)c1ccccc1
  -0.1	14%
Cc1ncc(CO)c(C=O)c1O
  ?	?
COc1ccc(C2=Nn3c(nnc3-c3ccccc3C)SC2)cc1
  0.9	45µM*
Cc1ccc(S(=O)(=O)N[C@H]2COC(=O)C/C=C\[C@H](C)[C@@H](NS(=O)(=O)c3ccc(C)cc3)COC(=O)C/C=C\[C@@H]2C)cc1
  -3.9[11.7 µM]	10%
COc1ccccc1CNC(=O)c1cccc(-c2ccccc2OC)n1
  1.9[94.6 µM]	15%

Going on with the list:
mol	Menin MLL FP FL	Sfp PPTase inh
OC[C@H]1NC[C@H](O)[C@@H](O)[C@H]1O	?	2%
COc1cccc2oc(SC)cc(=O)c12	-1.7[138 µM]	-5%
CCC(=O)[C@@]1(O)C(=O)N2C(=C3C(=O)OCCC31)N(Cc1ccccc1)C(C)=C(C(=O)OC)C2c1ccccc1 (some centres undefined)	-3.8[11.7 µM]	23%
COc1cccc(Nc2ncc3nc(-c4cc(F)cc(F)c4)c(=O)n(C4CC4)c3n2)c1	?	11%
COC(=O)C/C=C/[C@@H](C)[C@H](NC(=O)OCC(Cl)(Cl)Cl)c1ccc2ccccc2c1	-4.6	-12%
CC(C)CO/N=C1/C[C@@H](O)[C@@H](O)[C@@H]2[C@@H]3C(=O)N(C4CCCCC4)C(=O)[C@H]3CC[C@H]12	0.0[11.7 µM]	6%
O=P(O)(O)C(O)(Cc1cccnc1)P(=O)(O)O	-2.1	13%
CNc1nc(-c2ccc(C(=O)N(C)C)cc2)nc2ccccc12	-5.8	-6%
O=c1c(-c2ccccc2)nc2cnc(N3CCOCC3)nc2n1C[C@H]1CCCO1	-3.2	15%
CS(=O)(=O)N1CCC2(CCN(Cc3nccs3)CC2)CC1	0.5	?
N#CC(c1ccc(Cl)cc1)c1c(Cl)cc(-n2ncc(=O)[nH]c2=O)cc1Cl (centres undefined)	6.8	-9%
COC(=O)NC(c1ccc2ccccc2c1)C(C(C)=O)C(=O)OC (centres undefined)	0.9[11.7 µM]	12%
Nc1nc(NC2CC2)c2ncn([C@H]3C=C[C@@H](CO)C3)c2n1	-1.8	4%
c1ccc2c(c1)Sc1ccccc1N2CCN1CCCC1	0.5	0%
CC(C)=O	0.0	9%
COc1ccc2[nH]cc(CCNc3cc(-c4cccnc4)ncn3)c2c1	-12	?
NCCCCCCC(O)(P(=O)(O)O)P(=O)(O)O	0.9	-1%
O=C(c1csnn1)N1CCC2(CCCN(c3ccccn3)C2)CC1	-2.5	13%
CCCCc1nc2c(c3c1C[C@H](C)OC3)CN(S(=O)(=O)c1ccc3c(c1)OCCN3C)CC2	4.5[11.7 µM]	-14%
CCOC(=O)C(c1ccc(OC)c(OC)c1)C1c2ccccc2C=C(C)N1C(=O)OC (centres undefined)	-2.1[11.7 µM]	8%
CN(C)Cc1ccccc1-c1nccc(N(C)Cc2ccco2)n1	-3.9	4%
COc1ccc(NC(=O)N2CCCC3(CCN(C(=O)c4ccncc4)CC3)C2)cc1	-1.0	15%
CN1CCN(c2ncc3ncc(=O)n(Cc4cccs4)c3n2)CC1	-3.4	9%
CN(C)C(=O)n1nnnc1Cc1ccc(-c2ccccc2)cc1	1.4	1%
CC(C)=CCC[C@](C)(O[C@@H]1O[C@H](CO)[C@@H](O)[C@H](O)[C@H]1O)[C@H]1CC[C@]2(C)[C@@H]1[C@H](O)C[C@@H]1[C@@]3(C)CC[C@H](O[C@@H]4O[C@H](CO)[C@@H](O)[C@H](O)[C@H]4O[C@@H]4O[C@H](CO)[C@@H](O)[C@H](O)[C@H]4O)C(C)(C)[C@@H]3[C@@H](O)C[C@]12C	2.1	-2%
COc1ccc(-c2coc3cc(OC(C)=O)cc(OC(C)=O)c3c2=O)cc1	6.2	-1%
COc1ccccc1CN1CC[C@@]2(CCCN(C(=O)c3cccc(F)c3)C2)C1	-4.7	13%
COc1ccc(-c2nc(C(=O)N3CCN(C)CC3)sc2-c2ccc(OC)cc2)cc1	?	?

Screening results as filed in PubChem BioAssay.

A portion of the library, so the mix of outcomes need not match the whole.
